UUG fidelity = modulators of start codon recognition fidelity in yeast. S. cerevisiae UUG-firefly luciferase reporter, luminescence/redox ratio. activity score, % at 18.7 µM. actives 0.13% (n = 350,000). AID 602363;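 active = replicate mean at a twofold rise or more, about +100% in these data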;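 also: firefly luciferase made from a UUG start codon reports start codon fidelity; reporter light over untreated wells divided by growth signal over untreated wells; some hits fall short of that in this replicate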
HIV Env fusion = HIV envelope-mediated fusion inhibition | actives 1.1% (n = 360,000) | AID 651610 | HeLa-JRFL Env/CEM21 cell fusion, luciferase | inhibition, % at 12.3 µM;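 active = mean replicate inhibition score of at least 50 and every replicate individually at or above 50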;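 also: 0% = plate neutral controls and 100% = maraviroc near 300 nM; one replicate is shown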
Numbers without * were called inactive; [ ] = remark or other dose. Not all compounds are listed (hit frequency here may not be typical).

SMILES | UUG fidelity | HIV Env fusion
COc1ccc(CN(C)C[C@H]2OCCCC[C@@H](C)Oc3ccc(NC(=O)Nc4ccc(C(F)(F)F)cc4)cc3C(=O)N([C@H](C)CO)C[C@@H]2C)cc1 | -8 | 11[16.7 µM]
C[C@@H]1CN([C@@H](C)CO)C(=O)Cc2cc(NC(=O)Nc3ccccc3)ccc2O[C@H]1CN(C)S(=O)(=O)c1cccs1 | -6 | 1[16.7 µM]
C[C@@H]1CN([C@@H](C)CO)S(=O)(=O)c2ccc(/C=C/c3ccccc3)cc2O[C@H]1CN(C)C(=O)NC1CCCC1 | 0 | -2[16.7 µM]
C[C@H](CO)N1C[C@H](C)[C@H](CN(C)C(=O)C2CCCCC2)Oc2cc(-c3cncnc3)ccc2S1(=O)=O | 16 | -25[16.7 µM]
C[C@@H]1CCCCO[C@@H](CN(C)C)[C@@H](C)CN([C@@H](C)CO)C(=O)c2cc(NS(=O)(=O)c3cccs3)ccc2O1 | 5 | 15[16.7 µM]
C[C@H](CO)N1C[C@H](C)[C@H](CN(C)Cc2cccc(C(=O)O)c2)Oc2cc(C3=CCCC3)ccc2S1(=O)=O | 1 | 8[16.7 µM]
O=C(C[C@@H]1C[C@H]2c3cc(NC(=O)Cc4ccncc4)ccc3O[C@H]2[C@@H](CO)O1)NCc1ccc(-c2ccccc2)cc1 | 5 | -46[16.7 µM]
C[C@@H]1CN([C@@H](C)CO)C(=O)c2cc(-c3cccc(C#N)c3)cnc2O[C@H]1CN(C)C(=O)c1ccccn1 | -10 | -2[16.7 µM]
Cc1noc(C)c1NC(=O)N(C)C[C@@H]1Oc2ccc(NC(=O)NC3CCCCC3)cc2CC(=O)N([C@@H](C)CO)C[C@H]1C | -7 | -25[16.7 µM]
C[C@H](CO)N1C[C@H](C)[C@H](CN(C)Cc2cccnc2)Oc2ncc(C#CCc3ccccc3)cc2C1=O | 11 | 11[16.7 µM]
C[C@@H]1CN([C@@H](C)CO)C(=O)Cc2cc(NC(=O)NC3CCCCC3)ccc2O[C@H]1CN(C)CC1CCCCC1 | -3 | -6[16.7 µM]
C[C@@H]1CCCCO[C@H](CN(C)S(=O)(=O)c2cccs2)[C@@H](C)CN([C@@H](C)CO)C(=O)c2cc(NC(=O)c3ccncc3)ccc2O1 | -4 | -8[16.7 µM]
C[C@@H]1CN([C@@H](C)CO)C(=O)Cc2cc(NC(=O)Nc3ccc(F)cc3)ccc2O[C@H]1CN(C)Cc1ccccc1 | 6 | 16[16.7 µM]
COc1ccc(S(=O)(=O)N(C)C[C@H]2Oc3ccc(NC(=O)NC(C)C)cc3C(=O)N([C@H](C)CO)C[C@H]2C)cc1 | 8 | -9[16.7 µM]
C[C@@H]1CN([C@@H](C)CO)C(=O)c2cccc(NS(=O)(=O)c3cn(C)cn3)c2O[C@@H]1CN(C)S(=O)(=O)c1cn(C)cn1 | -6 | 11[16.7 µM]
C[C@H]1CN([C@@H](C)CO)S(=O)(=O)c2ccc(C3=CCCCC3)cc2O[C@H]1CN(C)Cc1ccncc1 | -5 | 18[16.7 µM]
C[C@@H]1CN([C@H](C)CO)S(=O)(=O)c2ccc(-c3ccccc3)cc2O[C@H]1CN(C)C(=O)C1CC1 | -5 | -7[16.7 µM]
CS(=O)(=O)Nc1ccc2c(c1)[C@@H]1C[C@@H](CC(=O)NCc3ccc(Oc4ccccc4)cc3)O[C@@H](CO)[C@@H]1O2 | 1 | -238[16.7 µM]
Cc1ccc(S(=O)(=O)Nc2ccc3c(c2)CC(=O)N([C@H](C)CO)C[C@@H](C)[C@H](CN(C)C(=O)Nc2ccc(C(F)(F)F)cc2)O3)cc1 | 4 | -19[16.7 µM]
C[C@@H]1CN([C@H](C)CO)C(=O)c2cc(NC(=O)Nc3cccc4ccccc34)ccc2O[C@@H](C)CCCCO[C@H]1CN(C)S(=O)(=O)c1cccs1 | -21 | 15[16.7 µM]

Arranged by number of heavy atoms (falling): part of the list above
SMILES | UUG fidelity | HIV Env fusion
Cc1noc(C)c1NC(=O)N(C)C[C@@H]1Oc2ccc(NC(=O)NC3CCCCC3)cc2CC(=O)N([C@@H](C)CO)C[C@H]1C | -7 | -25[16.7 µM]
C[C@@H]1CN([C@@H](C)CO)C(=O)Cc2cc(NC(=O)Nc3ccccc3)ccc2O[C@H]1CN(C)S(=O)(=O)c1cccs1 | -6 | 1[16.7 µM]
C[C@H](CO)N1C[C@H](C)[C@H](CN(C)Cc2cccnc2)Oc2ncc(C#CCc3ccccc3)cc2C1=O | 11 | 11[16.7 µM]

(list continues)
SMILES | UUG fidelity | HIV Env fusion
C[C@@H]1CN([C@@H](C)CO)S(=O)(=O)c2ccc(C#Cc3ccc(F)cc3)cc2O[C@H]1CN(C)C | 0 | 2[16.7 µM]
C[C@@H]1CCCCO[C@H](CN(C)S(=O)(=O)c2ccccc2)[C@@H](C)CN([C@H](C)CO)C(=O)c2cc(NC(=O)Nc3ccc(F)cc3)ccc2O1 | -4 | -2[16.7 µM]
Cc1noc(C)c1NC(=O)Nc1ccc2c(c1)CC(=O)N([C@H](C)CO)C[C@@H](C)[C@@H](CN(C)C(=O)Nc1ccc(C(F)(F)F)cc1)O2 | -5 | -13[16.7 µM]
COc1ccc(S(=O)(=O)N(C)C[C@H]2Oc3ccc(NC(=O)NC(C)C)cc3CC(=O)N([C@H](C)CO)C[C@@H]2C)cc1 | 17 | -12[16.7 µM]
C[C@H](CO)N1C[C@H](C)[C@H](CN(C)Cc2ccccc2)Oc2ncc(C#Cc3cccnc3)cc2C1=O | -11 | -8[16.7 µM]
C[C@H](CO)N1C[C@H](C)[C@@H](CN(C)Cc2ccc(C(=O)O)cc2)Oc2ccc(NC(=O)C3CCCCC3)cc2CC1=O | -13 | -2[16.7 µM]
C[C@@H]1CCCCO[C@H](CN(C)Cc2ccncc2)[C@H](C)CN([C@@H](C)CO)C(=O)c2cc(NC(=O)Nc3ccc(C(F)(F)F)cc3)ccc2O1 | 9 | -6[16.7 µM]
CC(C)NC(=O)Nc1cccc2c1O[C@@H](CN(C)C(=O)Nc1ccccc1)[C@H](C)CN([C@H](C)CO)C2=O | 7 | -6[16.7 µM]
C[C@@H]1CCCCO[C@@H](CN(C)Cc2ccccc2)[C@H](C)CN([C@H](C)CO)C(=O)c2cc(NS(=O)(=O)c3ccccc3)ccc2O1 | -3 | -42[16.7 µM]
C[C@H](O)C#Cc1ccc2c(c1)O[C@H](CN(C)Cc1ccccn1)[C@@H](C)CN([C@@H](C)CO)S2(=O)=O | -16 | -29[16.7 µM]
COc1cccc(C#Cc2cnc3c(c2)C(=O)N([C@H](C)CO)C[C@@H](C)[C@@H](CN(C)C)O3)c1 | 44 | 1[16.7 µM]
C[C@@H]1CN([C@@H](C)CO)C(=O)c2cc(NC(=O)CCC(F)(F)F)ccc2O[C@@H](C)CCCCO[C@@H]1CN(C)S(=O)(=O)c1ccccc1 | 3 | -6[16.7 µM]
COc1ccccc1-c1ccc2c(c1)O[C@@H](CN(C)C(=O)Nc1cccc(F)c1)[C@@H](C)CN([C@@H](C)CO)S2(=O)=O | -7 | -8[16.7 µM]
CCS(=O)(=O)N[C@H]1CC[C@H](CC(=O)Nc2ccc(-c3ccccc3)cc2)O[C@@H]1CO | -11 | -3[16.7 µM]
C[C@@H]1CN([C@@H](C)CO)C(=O)c2cc(C3=CCCC3)cnc2O[C@H]1CN(C)C | -12 | 5[16.7 µM]
O=C(Nc1cc(F)ccc1F)N[C@H]1CC[C@@H](CCn2cc(C3CCCCC3)nn2)O[C@H]1CO | 11 | 13[16.7 µM]
Cc1noc(C)c1S(=O)(=O)Nc1ccc2c(c1)C(=O)N([C@H](C)CO)C[C@@H](C)[C@@H](CN(C)C(=O)Nc1ccccc1)O2 | 9 | -3[16.7 µM]
COc1ccccc1-c1ccc2c(c1)O[C@@H](CN(C)C)[C@H](C)CN([C@H](C)CO)S2(=O)=O | -7 | -3[16.7 µM]
C[C@H](CO)N1C[C@H](C)[C@@H](CN(C)C(=O)Nc2cccc3ccccc23)Oc2ccc(N(C)C)cc2C1=O | -6 | 10[16.7 µM]
CC(C)NC(=O)Nc1ccc2c(c1)C(=O)N([C@H](C)CO)C[C@@H](C)[C@H](CN(C)Cc1ccc(Cl)c(Cl)c1)OCCCC[C@@H](C)O2 | 9 | 8[16.7 µM]
C[C@@H]1CN([C@@H](C)CO)C(=O)c2cccc(NC(=O)Nc3ccc4c(c3)OCO4)c2O[C@@H]1CN(C)S(=O)(=O)c1ccc(F)cc1 | -5 | -17[16.7 µM]
Cc1noc(C)c1S(=O)(=O)Nc1ccc2c(c1)C(=O)N([C@H](C)CO)C[C@@H](C)[C@H](CN(C)CC1CCCCC1)OCCCC[C@H](C)O2 | 14 | -3[16.7 µM]
COc1ccc(S(=O)(=O)N2C[C@@H](O)COC[C@@H]3O[C@@H](CC(=O)N(C)C)CC[C@H]32)cc1 | -7 | -12[16.7 µM]
C[C@@H]1CN([C@@H](C)CO)C(=O)Cc2cc(NC(=O)Cc3cn(C)c4ccccc34)ccc2O[C@@H]1CN(C)Cc1ccc2c(c1)OCO2 | 17 | -61[16.7 µM]
COc1ccc(NC(=O)N(C)C[C@H]2OCCCC[C@@H](C)Oc3ccc(NC(=O)Nc4c(C)noc4C)cc3C(=O)N([C@@H](C)CO)C[C@H]2C)cc1 | -2 | -14[16.7 µM]
C[C@@H]1CCCCO[C@@H](CN(C)S(=O)(=O)c2ccc(Cl)cc2)[C@@H](C)CN([C@H](C)CO)C(=O)c2cc(NS(=O)(=O)c3ccc(Cl)cc3)ccc2O1 | -10 | -42[16.7 µM]
CCCNC(=O)N[C@@H]1C=C[C@@H](CC(=O)N2CCN(C)CC2)O[C@H]1CO | -9 | 17[16.7 µM]
C[C@@H]1CCCCO[C@@H](CN(C)Cc2ccc(C(=O)O)cc2)[C@H](C)CN([C@@H](C)CO)C(=O)c2cc(NC(=O)Nc3cccc4ccccc34)ccc2O1 | 16 | -17[16.7 µM]
Cc1noc(C)c1NC(=O)N[C@H]1CC[C@H](CCNC(=O)C2CCC2)O[C@@H]1CO | 5 | 28[16.7 µM]
C[C@@H]1CCCCO[C@H](CN(C)Cc2ccccc2)[C@@H](C)CN([C@H](C)CO)C(=O)c2cc(NC(=O)CCC(F)(F)F)ccc2O1 | 19 | 12[16.7 µM]
COc1ccc(S(=O)(=O)Nc2ccc3c(c2)C(=O)N([C@H](C)CO)C[C@H](C)[C@@H](CN(C)C(=O)c2ccccc2)OCCCC[C@H](C)O3)cc1 | 6 | -130[16.7 µM]
COCCNC(=O)C[C@@H]1C[C@H]2c3cc(NC(=O)C4CCC4)ccc3O[C@H]2[C@H](CO)O1 | 7 | -2[16.7 µM]
CC(=O)N(C)C[C@H]1Oc2ncc(C#CC3(O)CCCC3)cc2C(=O)N([C@H](C)CO)C[C@H]1C | -9 | 22[16.7 µM]
O=C(Nc1ccc2c(c1)OCO2)N[C@@H]1CC[C@@H](CCNC(=O)C2CC2)O[C@H]1CO | -20 | 2[16.7 µM]
C[C@@H]1CCCCO[C@@H](CN(C)C(=O)Nc2ccc(C(F)(F)F)cc2)[C@H](C)CN([C@H](C)CO)C(=O)c2cc(NS(=O)(=O)c3cn(C)cn3)ccc2O1 | -12 | -211[16.7 µM]
CC(C)CC#Cc1ccc2c(c1)O[C@H](CN(C)Cc1cccc(F)c1)[C@H](C)CN([C@H](C)CO)S2(=O)=O | -3 | 25[16.7 µM]
CCS(=O)(=O)Nc1ccc2c(c1)C(=O)N(C)C[C@H](OC)[C@H](C)CN(C(C)=O)[C@H](C)CO2 | -1 | -19[16.7 µM]
C[C@@H]1CN([C@H](C)CO)C(=O)c2cc(N(C)C)ccc2O[C@@H](C)CCCCO[C@H]1CN(C)S(=O)(=O)c1cccs1 | 8 | -9[16.7 µM]
O=C(NCC[C@H]1CC[C@@H](NC(=O)C2CCC2)[C@@H](CO)O1)Nc1ccc(Cl)cc1 | 2 | 18[16.7 µM]
CN1C(=O)c2cc(NC(=O)Cc3ccccc3)ccc2OC[C@@H]2O[C@H](CC(=O)NCC3CC3)CC[C@H]21 | 2 | -5[16.7 µM]

Entries of single compounds as entered above.
`C[C@@H]1CCCCO[C@H](CN(C)S(=O)(=O)c2ccccc2)[C@@H](C)CN([C@H](C)CO)C(=O)c2cc(NC(=O)Nc3ccc(F)cc3)ccc2O1` reads UUG fidelity = -4; HIV Env fusion = -2[16.7 µM]
`C[C@@H]1CN([C@@H](C)CO)C(=O)c2cccc(NS(=O)(=O)c3cn(C)cn3)c2O[C@@H]1CN(C)S(=O)(=O)c1cn(C)cn1` reads UUG fidelity = -6; HIV Env fusion = 11[16.7 µM]
`COCCNC(=O)C[C@@H]1C[C@H]2c3cc(NC(=O)C4CCC4)ccc3O[C@H]2[C@H](CO)O1` reads UUG fidelity = 7; HIV Env fusion = -2[16.7 µM]

(next part)
SMILES | UUG fidelity | HIV Env fusion
CCCNC(=O)N(C)C[C@H]1Oc2cc(C#Cc3cccc(F)c3)ccc2S(=O)(=O)N([C@H](C)CO)C[C@H]1C | 15 | -7[16.7 µM]
C[C@H]1CN([C@@H](C)CO)C(=O)c2cc(Br)cnc2O[C@@H]1CN(C)Cc1cccc(F)c1 | 2 | 1[16.7 µM]
C[C@@H]1CN([C@@H](C)CO)C(=O)c2cc(C#CC3CC3)cnc2O[C@@H]1CN(C)Cc1cccc(C(=O)O)c1 | 69 | -10[16.7 µM]
CN(C)C(=O)C[C@@H]1CC[C@H](NS(=O)(=O)c2ccccc2)[C@H](CO)O1 | -12 | 11[16.7 µM]
C[C@@H]1CN([C@@H](C)CO)C(=O)c2cc(C#Cc3ccncc3)cnc2O[C@@H]1CN(C)Cc1ccncc1 | -11 | -11[16.7 µM]
Cc1noc(C)c1NC(=O)N(C)C[C@H]1Oc2ncc(C#CC3CC3)cc2C(=O)N([C@@H](C)CO)C[C@H]1C | 7 | -23[16.7 µM]

From PubChem
